Compound activity: PubChem BioAssay, several laboratories
E coli growth: E. coli growth inhibition; Escherichia coli growth, OD600, 23 h; hits give low values; OD600 absorbance (test concentration not listed); AID 1053175; actives 0.21% (n = 330,000);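 active means OD600 absorbance below the run mean of sample wells minus 3.6 SD, in any replicate, cut at about 0.56 in these data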;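 further: stock transfer was 300 nL into about 60 µL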
B2AR ag: human beta-2 adrenergic receptor agonism by FAP. Am2.2-beta2AR cells, FAP receptor internalization, flow cytometry; reference of the scale not given here. P07550. actives 0.43% (n = 340,000). response, % (no concentration beside the values);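 active means response above a set limit, near 3 SD of response in nonfluorescent compounds, cut at about 42% in these data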;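 further: stock transfer was 100 nL into about 11 µL; a reference agonist was the positive control; negative values mostly stem from fluorescent compounds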
ALR inh: human ALR oxidase inhibition via reduced H2O2; P55789; actives 3.8% (n = 290,000); inhibition, % (no concentration beside the values); purified ALR, DTT oxidation, H2O2 HRP-luminol luminescence; AID 485317;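 active means mean and each replicate at 75% or more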;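 further: stock transfer was 7.5 nL into about 7.5 µL; 0% = neutral wells and 100% = wells with inactivated enzyme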
Target sequence (P55789 whole entry, looked up): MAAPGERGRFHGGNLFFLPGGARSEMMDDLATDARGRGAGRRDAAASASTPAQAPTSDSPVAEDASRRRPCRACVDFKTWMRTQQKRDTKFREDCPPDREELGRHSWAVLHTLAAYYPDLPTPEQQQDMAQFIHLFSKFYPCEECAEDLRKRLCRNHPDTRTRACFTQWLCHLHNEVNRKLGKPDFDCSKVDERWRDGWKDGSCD
FGF22 binding: shifts melting point of recombinant human FGF22 | Q9HCT0 | recombinant FGF22 thermal shift, SYPRO orange fluorescence; percent of sucrose octasulfate shift, DMSO zero | calls only at 9.99 µM | actives 1.5% (n = 340,000);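 active means melting point raised past a set limit in the mean and every replicate; three in four hits are not shown here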
rRNA inh HTS: selective bacterial rRNA inhibition in E. coli; E. coli WT GFP vs humanized-ribosome RFP mutants, fluorescence, 24 h; hits give low values; DMSO median 0, no signal -100; GFP signal change (wild-type ribosome), % (concentration not given with the values); actives 1.6% (n = 350,000);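 active means significant combined selectivity score with lowered wild-type GFP, culture density cut under 30%, mutant RFP and density less affected; inactive means any of these conditions unmet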; further: one replicate is shown; some compounds called inactive have numbers as strong as hits
UCH37 inh: inhibitors of human deubiquitinating enzyme UCH37. Q9Y5K5. purified proteasome/UCH37, Ub-AMC cleavage fluorescence. inhibition, % (concentration not given with the values). actives 0.33% (n = 330,000). AID 588478;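 active means mean of two replicates above 20%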;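 further: 0% = compound-free wells with enzyme and 100% = wells lacking proteasome; stock transfer was 100 nL into about 20 µL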
Target sequence (Q9Y5K5 whole entry, looked up): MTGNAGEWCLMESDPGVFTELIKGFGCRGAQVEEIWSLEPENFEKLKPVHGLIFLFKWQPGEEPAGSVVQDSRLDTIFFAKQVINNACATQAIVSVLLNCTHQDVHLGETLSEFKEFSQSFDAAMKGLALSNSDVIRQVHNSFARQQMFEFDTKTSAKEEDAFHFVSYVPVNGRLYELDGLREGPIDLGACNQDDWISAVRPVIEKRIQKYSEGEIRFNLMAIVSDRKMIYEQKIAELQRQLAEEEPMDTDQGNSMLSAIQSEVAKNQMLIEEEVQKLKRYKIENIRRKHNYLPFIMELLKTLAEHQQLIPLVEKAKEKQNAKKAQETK
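system = Proteasome-associated human UCH37 deubiquitinase | amount = 0.15 nM proteasome as dispensed | medium = pH 7.4 Tris-HCl (50 mM) with ovalbumin, ATP-MgCl2, DTT | incubation = 30 min preincubation with enzyme, 25 min cleavage at room temperature | detection = AMC fluorescence 355/460 nm | read-out basis = percent inhibition | controls = no-proteasome and no-compound wells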
HNF4A DNA FP: change in binding of human HNF4 alpha to DNA | HNF4a-FITC DNA binding, fluorescence polarization, 1 h | activity change, % at 10 µM | actives 0.3% (n = 360,000) | P41235; in the data active means activity change above about 30%, passing the limit was not always enough;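 further: controls were the assay level and a saturating level of protein; the project sought stronger binding though the title names inhibitors; some compounds called inactive have numbers as strong as hits; positive values seem to mean higher polarization but the record does not say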
Target sequence (P41235 whole entry, looked up): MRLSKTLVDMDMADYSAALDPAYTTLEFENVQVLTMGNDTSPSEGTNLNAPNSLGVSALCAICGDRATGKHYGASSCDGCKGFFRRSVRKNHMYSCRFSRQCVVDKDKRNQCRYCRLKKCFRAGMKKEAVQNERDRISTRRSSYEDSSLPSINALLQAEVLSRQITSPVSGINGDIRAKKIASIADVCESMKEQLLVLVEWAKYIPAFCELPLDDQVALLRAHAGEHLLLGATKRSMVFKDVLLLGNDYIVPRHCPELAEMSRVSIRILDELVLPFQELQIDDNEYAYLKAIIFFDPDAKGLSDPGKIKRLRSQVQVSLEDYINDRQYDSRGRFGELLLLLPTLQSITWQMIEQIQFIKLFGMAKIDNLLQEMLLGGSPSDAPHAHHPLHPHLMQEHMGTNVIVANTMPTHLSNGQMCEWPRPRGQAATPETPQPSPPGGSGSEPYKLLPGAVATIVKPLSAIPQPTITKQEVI
rRNA inh HTS OD600: also measured in rRNA inh HTS; calls as there; OD600 change, %; measured here: OD600 growth;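 optical density of the mix in the first replicate; 0 = DMSO median and -100 = no signal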
rRNA inh HTS RFP: second read-out of rRNA inh HTS, no call of its own (marks repeat the call); RFP signal change, %; measured here: RFP humanized mutant strains;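 first replicate; 0 = DMSO median and -100 = no signal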
* = called active by the depositor; i = inactive; nt = no result given; & = joins results of further samples.

Every second line gives: E coli growth	B2AR ag	ALR inh	FGF22 binding	rRNA inh HTS	rRNA inh HTS OD600	rRNA inh HTS RFP	UCH37 inh	HNF4A DNA FP
Cc1cccc(-n2c(SCC(=O)Nc3nonc3C)nnc2-c2ccoc2C)c1
    0.715	-15.2	2.9	nt	nt	nt	nt	0.1	3.8
COc1cc(C)c(S(=O)(=O)NCc2cccs2)cc1C
    0.68	9.9	-0.9	nt	nt	nt	nt	nt	5.7
CC(C)CNC(=S)Nc1ccc(S(N)(=O)=O)cc1
    0.639	-4.7	nt	nt	nt	nt	nt	0.1	-1.8
CCn1nc(C)c(NC(=O)Nc2cccc(Cl)c2Cl)c1C
    0.669	-1.8	1.1	i	5.2	9.1	-0.2	2.4	0.5
Cc1cccc(-c2nc(CS(=O)CC(=O)NCCc3ccc(Cl)cc3)c(C)o2)c1 (stereo not drawn)
    0.659	-1.4	91.4*	i	1.2	2.4	1.7	0.9	4.0
Cc1ccc(NC(=S)N/N=C2/CCCc3c(C)cc(C)cc32)cc1
    nt	-1.1	-4.0	nt	nt	nt	nt	nt	-4.9
O=C(c1cc2nc(-c3cccs3)cc(C(F)(F)Cl)n2n1)N1CCCc2ccccc21
    0.674	15.1	-6.1	nt	nt	nt	nt	-4.5	-1.4
CCOC(=O)NC(=O)C(=CNc1ccc(C)cc1)C(=O)NC(=O)OCC
    0.707	3.4	20.1	i	-4.7	-7.1	-1.3	2.3	2.5
COc1ccc(/C=N/n2c(=S)n(C)c3ccccc32)cc1OC
    nt	-6.7	-5.1	nt	nt	nt	nt	nt	-1.6
COc1ccc(-n2ncc3c2CC(C)(C)CC3NC(=O)CCn2cncn2)cc1 (stereo not drawn)
    0.708	10.9	-3.3	i	8.9	6.0	-0.3	1.6	1.7
Nc1nc2ccc(Oc3ccccc3)cc2s1
    0.698	-8.8	nt	nt	nt	nt	nt	2.0	3.8
COC(=O)c1c(N)sc2c1CC(C)(C)OC2
    0.693	-4.6	98.1*	i	1.9	8.1	-0.5	4.6	-1.2
COc1ccc([C@H]2/C=C\CN(S(=O)(=O)c3ccc4ccccc4c3)[C@@H](C)C(=O)N2Cc2ccc(F)cc2)cc1
    nt	1.6	-6.0	i	4.9	2.5	-1.0	0.0	7.0
CC[C@@H]1CC2=C(C(=O)OC(C)(C)O2)[C@@H](CC)O1
    nt	nt	nt	i	8.1	17.1	-5.0	nt	-5.5
O=C1C(=O)c2c(ccc3ccccc23)-c2ccccc21
    0.57	8.7	nt	i	14.1	10.0	1.0	-10.1	2.7

Three structures already listed, ordered by count of non-hydrogen atoms, rising:
Every second line gives: E coli growth	B2AR ag	ALR inh	FGF22 binding	rRNA inh HTS	rRNA inh HTS OD600	rRNA inh HTS RFP	UCH37 inh	HNF4A DNA FP
O=C1C(=O)c2c(ccc3ccccc23)-c2ccccc21
    0.57	8.7	nt	i	14.1	10.0	1.0	-10.1	2.7
CCn1nc(C)c(NC(=O)Nc2cccc(Cl)c2Cl)c1C
    0.669	-1.8	1.1	i	5.2	9.1	-0.2	2.4	0.5
Cc1ccc(NC(=S)N/N=C2/CCCc3c(C)cc(C)cc32)cc1
    nt	-1.1	-4.0	nt	nt	nt	nt	nt	-4.9

Later entries
Every second line gives: E coli growth	B2AR ag	ALR inh	FGF22 binding	rRNA inh HTS	rRNA inh HTS OD600	rRNA inh HTS RFP	UCH37 inh	HNF4A DNA FP
COc1cccc(CN2C(=O)CCC2(C)C(=O)NC2CCCCCC2)c1 (stereo not drawn)
    0.663	12.1	-2.5	nt	3.8	0.3	5.5	5.4	1.9
COc1ccccc1N(CC(=O)Nc1ccccc1C(=O)NC(C)C)S(C)(=O)=O
    0.764	-7.0	-4.5	nt	2.5	4.8	-1.4	-2.1	0.9
COCCn1nnnc1C1(N(Cc2cc3cc(C)ccc3[nH]c2=O)CC2CCCO2)CCN(C)CC1 (stereo not drawn)
    0.753	-7.5	0.5	nt	nt	nt	nt	-2.0	-2.1
C(#Cc1ccccc1)CN1CCN(c2ccccn2)CC1
    0.676&0.664	-10.3&3.6	-5.3	i	5.9	-17.2	-2.1	4.3&2.7	0.8&1.1
O=C(C(Sc1ccccc1)c1ccc(Br)cc1)N1CCOCC1 (stereo not drawn)
    0.685	5.5	-7.8	i	-21.2	-36.5	-5.5	0.8	3.6
CC(C)C(=O)NC(c1ccc([N+](=O)[O-])cc1)c1c(O)ccc2ccccc12 (stereo not drawn)
    0.626	9.3	-38.4	nt	nt	nt	nt	7.8	-2.1
Cc1ccc(N=Cc2cc(C)n(C3CCCC3)c2C)cc1
    0.726	6.0	-5.0	nt	nt	nt	nt	4.1	4.6
COc1ccc(CCNC(=O)Nc2ccc3c(c2)c(=O)n(C)n3C)cc1OC
    nt	nt	nt	i	11.4	16.7	1.9	nt	-1.8
CCCc1nc2oc3cc(OC)ccc3c(=O)c2c(=O)n1CCc1ccccc1
    0.671	-6.1	-1.1	i	3.6	10.5	8.7	4.7	-0.6
CC(C)NC(=O)COC(=O)c1cc(=O)[nH]c2ccccc12
    0.703	10.2	-6.1	i	9.1	0.6	0.7	-40.1	-1.2
CC(C)CC(NC(=O)C(CC(C)C)NC(=O)OC(C)(C)C)C(N)=O (stereo not drawn)
    0.777	3.1	0.7	nt	nt	nt	nt	0.7	0.1
CCOC(=O)Nc1ccc2c(c1)nc(CN1CCCCC1)n2C
    0.713	-10.2	-21.6	nt	nt	nt	nt	-3.5	0.6
CC1c2cccn2CCN1S(=O)(=O)c1ccc(F)cc1 (stereo not drawn)
    0.729	-4.1	8.1	i	12.9	13.4	0.8	-3.0	-1.9
CCCN(Cc1ccc(N(CC)CC)cc1)CC1CC1
    0.693	-6.5	98.4*	nt	nt	nt	nt	0.5	-6.8
OCCCc1nc2ccccc2[nH]1
    0.663	4.5	-5.8	i	-0.5	2.8	0.2	-2.4	2.4

(list continues)
Every second line gives: E coli growth	B2AR ag	ALR inh	FGF22 binding	rRNA inh HTS	rRNA inh HTS OD600	rRNA inh HTS RFP	UCH37 inh	HNF4A DNA FP
O=C(CSc1nnc(C2COc3ccccc3O2)o1)Nc1nccs1 (stereo not drawn)
    0.719	4.5	21.2	nt	nt	nt	nt	5.7	3.6
CC(C)c1cccc(C(C)C)c1NC(=O)CN(C)C1CCS(=O)(=O)C1 (stereo not drawn)
    0.695	5.8	nt	i	nt	nt	nt	4.5	5.0
C[C@H](CO)N1C[C@H](C)[C@@H](CN(C)C(=O)Nc2ccc(C(F)(F)F)cc2)Oc2ccc(NC(=O)Nc3ccc4c(c3)OCO4)cc2C1=O
    0.729	-2.8	nt	i	-5.7&2.7	-13.7&-2.1	-1.5&0.8	2.8	1.2
Cc1ccccc1OCCC(=O)OCC(=O)Nc1c(F)cccc1F
    0.658	-5.9	0.4	i	-0.5	5.1	-1.8	1.3	-2.5
Cc1ccc(NC(=S)NNc2ccc(C(=O)O)cc2[N+](=O)[O-])cc1C
    0.667	-5.7	98.7*	i	-7.9	-19.4	1.9	4.2	1.7
CC(C)CCNC(=O)C1(c2cccs2)CCOCC1
    0.714	-10.7	-5.8	i	6.4	4.8	-5.8	1.1	-2.7
O=C(/C=C/c1ccccc1)Nc1ccc2c(c1)OCCO2
    0.614	-4.5	34.6	i	-2.9	4.7	-0.3	0.7	1.8
N#C/C(=C\c1coc2ccccc2c1=O)C(N)=S
    0.697	3.4	43.2	i	5.8	4.4	1.3	12.4	15.1
CSc1ncccc1C(=O)OCC(=O)NCc1ccccc1
    0.686	11.3	-11.0	i	-0.6	8.2	-1.6	5.9	0.1
CSCC[C@H](NC(=O)N1CCn2c1nc1ccccc12)C(=O)N1CCCCC1
    0.649	-12.5	97.5*	i	-17.1*	-11.4*	6.9*	0.2	2.0
C[C@@H]([C@@H](O)c1ccccc1)N(C)C(=O)C(N)Cc1ccccc1 (stereo partly drawn)
    nt	-0.1	4.3	i	5.3	9.8	-0.7	4.7	5.1
Cc1cc(C)cc(NC2=C(N)C(=O)c3ccccc3C2=O)c1
    0.715	-10.2	-8.3	nt	-1.7	-5.4	-2.2	4.2	5.5
Cc1nc2c(-c3ccccc3)c(C)[nH]n2c(=O)c1Cl
    0.683	1.7	-0.7	nt	nt	nt	nt	-16.4	-1.4
CC1(C)CC(Cc2ccc(C(F)(F)F)cn2)N(C(=O)OC(C)(C)C)C1 (stereo not drawn)
    nt	nt	nt	i	6.4	9.5	1.0	nt	8.0
CNNC(=O)C(C)NC(=O)c1ccc(Br)cc1 (stereo not drawn)
    0.706	-3.9	29.6	nt	nt	nt	nt	1.0	-4.1

(cont.)
Every second line gives: E coli growth	B2AR ag	ALR inh	FGF22 binding	rRNA inh HTS	rRNA inh HTS OD600	rRNA inh HTS RFP	UCH37 inh	HNF4A DNA FP
Cc1cccc(NC(=O)c2ccc([N+](=O)[O-])cc2Cl)n1
    0.69	-2.5	-3.4	nt	nt	nt	nt	2.0	4.3
CC1CCCN(C(=O)c2ccc3c(c2)OCO3)C1 (stereo not drawn)
    0.67	6.8	1.1	i	-0.6	1.9	-1.0	2.9	-4.2
CC(C)OC(=O)c1c2c(n3ccccc13)C(=O)c1ccccc1C2=O
    0.695	19.1	-7.8	i	7.6	-1.4	3.1	1.6	-7.4
CCOC(=O)C1CCCN(C(=O)c2cc(F)cc(F)c2)CC1 (stereo not drawn)
    nt	nt	nt	i	3.8	7.1	1.4	nt	10.2
COC(=O)Cn1c2ccc(C)cc2c2nc(C)sc21
    0.731	0.2	nt	nt	nt	nt	nt	6.4	1.1
Cc1ccc(NS(=O)(=O)c2ccc(C(=O)N3CCC3)cc2)cc1
    0.627	-11.7	4.5	i	-1.3	-3.5	-0.8	6.0	1.5
CCc1nnc(NC(=O)CN2CCCC(C)C2)s1 (stereo not drawn)
    0.656	4.1	-6.0	i	14.2	14.6	2.3	2.3	0.5
CNC(=O)c1nc(C)n(-c2ccc(Cl)cc2Cl)n1
    0.688	4.4	-5.7	nt	0.0	-1.9	-1.5	5.7	1.1
CCOc1ccc(N(C(C)C(=O)NN=C2CCCCCCC2)S(C)(=O)=O)cc1 (stereo not drawn)
    0.688	0.6	0.4	i	nt	nt	nt	1.1	2.6
O=C(O)c1ccc(/C=N/N2CCN(Cc3ccc(Cl)cc3)CC2)cc1
    nt	2.2	-0.1	i	4.2	-1.7	-2.9	nt	-2.1
C#CCOCCOCCOCCNc1nc(N2CCN(C(=O)[C@H]([C@@H](C)CC)n3cc(CCC(=O)O)nn3)CC2)nc(N2CCN(C(=O)[C@H](CCCCN)n3cc(CCC(=O)O)nn3)CC2)n1
    nt	-10.3	nt	i	7.7	6.8	-1.7	nt	3.5
Cc1ccc(S(=O)(=O)NC(C)(C)CN2CCNCC2)cc1
    nt	-1.7	-1.2	i	4.4	5.4	0.2	nt	-0.6

The list is partial; the hit share may differ from the screen's.
